Screens as filed in PubChem.
hNpr1 antagonist: antagonists of human natriuretic peptide receptor Npr1; P16066; HEK293 hNpr1 GloSensor cGMP, ANP-stimulated luminescence; Potency, µM (titrated, usually from 46.3 µM), for inactives: at the highest dose activity change, negative = inhibition, usual class: inhibitors; 76,000 tested, 1.6% active; AID 1347048; active = well fitted inhibition curve with a large enough effect; inconclusive = small, poorly fitted or top-dose-only effect; inactive = no such curve, though single readings can be large or run the other way;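 note: nearly all actives have a fitted effect of over 60% in size; nearly all hits also lower the signal before the agonist is added; a reference antagonist and vehicle were the controls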
Target sequence (P16066 whole entry, looked up): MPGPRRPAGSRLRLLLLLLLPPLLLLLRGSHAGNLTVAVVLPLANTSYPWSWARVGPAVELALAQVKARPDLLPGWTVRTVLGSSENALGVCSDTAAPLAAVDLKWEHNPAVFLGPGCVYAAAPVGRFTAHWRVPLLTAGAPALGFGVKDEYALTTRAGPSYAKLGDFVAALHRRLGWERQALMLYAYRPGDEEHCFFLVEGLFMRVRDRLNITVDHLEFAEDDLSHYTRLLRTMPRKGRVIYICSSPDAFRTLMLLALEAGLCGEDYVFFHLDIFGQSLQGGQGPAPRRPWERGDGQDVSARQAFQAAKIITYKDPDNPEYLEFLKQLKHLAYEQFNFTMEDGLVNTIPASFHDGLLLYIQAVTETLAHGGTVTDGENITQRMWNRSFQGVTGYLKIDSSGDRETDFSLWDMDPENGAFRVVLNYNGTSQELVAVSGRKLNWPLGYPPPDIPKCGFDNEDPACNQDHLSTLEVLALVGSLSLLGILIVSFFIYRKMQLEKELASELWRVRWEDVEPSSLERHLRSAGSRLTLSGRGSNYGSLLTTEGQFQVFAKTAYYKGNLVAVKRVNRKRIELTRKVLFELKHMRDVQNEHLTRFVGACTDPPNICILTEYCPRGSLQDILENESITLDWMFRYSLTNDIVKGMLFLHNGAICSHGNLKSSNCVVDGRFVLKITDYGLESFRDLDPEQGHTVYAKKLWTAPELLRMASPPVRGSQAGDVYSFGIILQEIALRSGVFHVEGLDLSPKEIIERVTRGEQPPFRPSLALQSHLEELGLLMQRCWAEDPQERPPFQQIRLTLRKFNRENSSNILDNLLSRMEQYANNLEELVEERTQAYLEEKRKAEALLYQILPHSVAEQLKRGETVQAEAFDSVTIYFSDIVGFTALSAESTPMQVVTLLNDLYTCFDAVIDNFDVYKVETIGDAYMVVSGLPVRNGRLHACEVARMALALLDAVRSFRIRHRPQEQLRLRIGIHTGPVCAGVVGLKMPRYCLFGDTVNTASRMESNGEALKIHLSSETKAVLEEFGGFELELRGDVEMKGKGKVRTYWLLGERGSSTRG
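HEK293 cells stably expressing human Npr1 and cGMP GloSensor pGS-40F, loaded 2 h with 2% GloSensor reagent, given compound 30 min at room temperature. Luminescence read before and 20 min after 0.1 nM hNppA.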
An asterisk follows results filed as active; ? = inconclusive; & = joins results of further samples; [ ] = dose if it differs, or a comment. % is set by controls: 0 for no effect and ±100 for the full control effect; potency is the fitted concentration of half-maximal effect.

Sample of the layout, 3 compounds:
| No. | hNpr1 antagonist | SMILES |
| --- | --- | --- |
| 1 | 5.1% | CCc1nc2c(c(-c3ccc(Cl)cc3)n1)CCN([S+](=O)([O-])c1cccc(C(F)(F)F)c1)CC2 |
| 2 | 14.6%[70.6 µM] | CSCCNC(=O)C1CN(c2ccc(Cl)cc2)C(=O)N1 (stereo not drawn) |
| 3 | ? | COc1ccc(C(=O)N2CCCN(c3cc(-c4ccccc4)[nH]n3)CC2)c(OC)c1 |

This part in full, repeating the preview:
| No. | hNpr1 antagonist | SMILES |
| --- | --- | --- |
| 1 | 5.1% | CCc1nc2c(c(-c3ccc(Cl)cc3)n1)CCN([S+](=O)([O-])c1cccc(C(F)(F)F)c1)CC2 |
| 2 | 14.6%[70.6 µM] | CSCCNC(=O)C1CN(c2ccc(Cl)cc2)C(=O)N1 (stereo not drawn) |
| 3 | ? | COc1ccc(C(=O)N2CCCN(c3cc(-c4ccccc4)[nH]n3)CC2)c(OC)c1 |
| 4 | -30.0% | CCC1=C(C(=O)OC)C(c2ccccc2F)N2C(CC(=O)NCCc3cccs3)=CSC2=N1 (stereo not drawn) |
| 5 | -1.7% | Cc1noc2nc(C(C)C)cc(C(=O)NC3CCCc4c3[nH]c3c(Cl)cccc43)c12 (stereo not drawn) |
| 6 | -4.9% | CC(C)c1nnc(C2CN(C(=O)CCc3nc4ccccc4[nH]3)CC23CCOCC3)o1 (stereo not drawn) |
| 7 | -10.3% | COc1cccc(CNC(=O)[C@@]23CCCC[C@H]2N(CCc2ccccc2)C(=O)CC3)c1 |
| 8 | 0.5% | CN1C(=O)CC(C(=O)O)C12CCN(Cc1cscn1)CC2 (stereo not drawn) |
| 9 | 1.5% | Cc1csc(NC(=O)[C@@H]2C[C@@H](c3cccc(C(F)(F)F)c3)N(Cc3cnn(C)c3)C2)n1 |
| 10 | -10.7% | COC[C@@H]1CN(C(=O)c2ccc(C)cn2)C[C@H]1c1nc(C2CC2)no1 |
| 11 | 5.7%[70.6 µM] | Cc1ccc2c(c1)N1C(=O)OC[C@@H]1CCN(C(=O)CCC(=O)O)C2 |
| 12 | 2.0% | Cc1ccc(-c2noc([C@@H]3CCCN3C(=O)c3ccc(C(C)(C)C)cc3)n2)cc1 |
| 13 | -18.2% | O=C1NCCCCCN(Cc2cccc(F)c2)[C@@H]2C[C@@H](C(=O)N3CCc4ccccc4C3)C[C@H]12 |
| 14 | -18.0% | COc1ccc(-n2c(=O)c3c(n2Cc2ccccc2)CN(CCCc2ccccc2)CC3)cc1 |
| 15 | 11.4% | Cc1nc(-c2c3n(c(=O)[nH]c2=O)CCCC3)no1 |
| 16 | -6.1% | CCC(=O)N1CCN(C2CCN(CCc3ccccc3)C2=O)CC1 (stereo not drawn) |
| 17 | -12.4%[70.6 µM] | O=C(Cc1ccccc1)Nc1ccc([C@@H](O)[C@H]2COCC(=O)N2)cc1 |
| 18 | ? | COCCN1C(=O)c2ccccc2C(C(=O)NCc2ccc(Cl)cc2)C12CCCC2 (stereo not drawn) |
| 19 | 2.3%&4.7% | O=C(NCc1ccc(F)cc1)c1cc(Br)cn2ccnc12 |
| 20 | 0.7%[70.6 µM] | COc1ccc(-c2cnc3n[nH]c(-c4ccc(OC)c(F)c4)c3n2)cn1 |
| 21 | -0.2% | O=C(Nc1ccc([C@@H](O)[C@H]2COCC(=O)N2Cc2ccc(F)cc2)cc1)c1cccnc1 |
| 22 | 1.7% | Cc1ccc(-c2nc(C(=O)NCc3ccco3)no2)cc1 |
| 23 | -2.3% | Cc1cccc(NC(=O)Cn2c(-c3ccc(Cl)cc3)nc(C)c(CCO)c2=O)c1C |
| 24 | 0.7%[70.6 µM] | O=C1N(Cc2ccccc2)CCOC12CCN(Cc1cccc(F)c1)CC2 |
| 25 | -2.7% | COc1cccc(C(=O)N2CCC(N3C[C@H](O)C[C@H]3C(=O)N3CCC(N4CCCCC4)CC3)CC2)c1 |
| 26 | -23.4% | Cc1ccc(CNC(=O)CCC2CCCN(S(=O)(=O)c3ccccc3C)C2)cc1 (stereo not drawn) |
| 27 | 0.3% | CN1Cc2cccn2CC1CNC(=O)Nc1cccc(F)c1 (stereo not drawn) |
| 28 | 0.6% | CS(=O)(=O)N(C1CC1)C1CCOC2(CCN(C(=O)c3ccccc3F)CC2)C1 (stereo not drawn) |
| 29 | 1.0% | COc1cccc(C(=O)N2CCCC(n3cc(-c4nc(C(C)C)no4)nn3)C2)c1 (stereo not drawn) |
| 30 | ? | COc1cncc(Nc2cnc3ccc(N(C)Cc4ccc(F)cc4)nn23)c1 |
| 31 | 0.5% | CNc1nccc(N2CCC(CC(=O)N3CCN(C(C)=O)CC3)CC2)n1 |
| 32 | 1.3% | O=C(Nc1ccccc1F)N1CCC(Oc2ncccc2C(=O)N2CCOCC2)C1 (stereo not drawn) |
| 33 | 4.7% | COc1ccc(CNC(=O)CC[C@H]2CNC(=O)[C@@H]3[C@@H](CCN3Cc3ncc[nH]3)N2C)cc1 |
| 34 | 3.9% | O=C(C1CC1)N1CCCC1c1nc(C2CCOCC2)no1 (stereo not drawn) |
| 35 | 4.9% | O=C(NCc1ccc(F)cc1)c1ccc(CN2C(=O)NC3(CCOCC3)C2=O)cc1 |
| 36 | 0.4% | CCOc1cc(=O)n2c(c1C(=O)Nc1ccc(OC)c(OC)c1)CCCC2 |
| 37 | 1.7% | CC(C)c1nnc(C2CN(C(=O)COc3ccccc3)CC23CCOCC3)o1 (stereo not drawn) |
| 38 | 3.0% | COCCC1(CO)CCCN(Cc2ccc(C#N)cc2)C1 (stereo not drawn) |
| 39 | -11.8% | COc1ccc(NC(=O)C2(Cc3cccnc3)CCCCC(=O)N2)cc1F (stereo not drawn) |
| 40 | -2.2% | O=C(NC1CCCCC1)N[C@H]1CCN2C(=O)c3cc(-c4cccs4)ccc3NC(=O)[C@H]12 |
| 41 | 0.6% | Cc1ccc(NC(=O)N2CCC(CCNC(=O)Cc3cccc(F)c3)CC2)cc1 |
| 42 | -0.6% | CC1(CNC(=O)c2ccc(Cl)s2)CCOCC1 |
| 43 | -0.2% | c1cnnc(-c2noc(C3(Cn4cccn4)CC3)n2)c1 |
| 44 | -16.9% | O=C(NCCCc1ccccc1)c1n[nH]c2c1CN(C(=O)c1ccccc1F)CC2 |
| 45 | -2.9%[70.6 µM] | c1ccc(OCc2cc(CC3(NCc4cccc5c4OCO5)COC3)no2)cc1 |
| 46 | 7.0%[70.6 µM] | Cc1ncsc1CN1C(=O)CO[C@H](c2ccc(NC(=O)NC(C)C)cc2)[C@H]1CO |
| 47 | -1.8%[70.6 µM] | c1cc(Cn2ccc3c(N4CCOCC4)nc(-c4cncnc4)cc32)ccn1 |
| 48 | -1.8% | O=c1[nH]nc2n1CCC(NS(=O)(=O)c1ccc(Cl)s1)CC2 (stereo not drawn) |
| 49 | 0.2%[70.6 µM] | CN1CCC(N2C[C@H](O)C[C@H]2c2nc(CS(=O)(=O)c3ccc(F)cc3)no2)CC1 |
| 50 | -21.2%[70.6 µM] | O=C(OCc1ccccc1)N1CCOCC12CCN(Cc1c[nH]c3ccccc13)CC2 |

Next part.
| No. | hNpr1 antagonist | SMILES |
| --- | --- | --- |
| 51 | -0.6% | OCC1CN(c2ncccn2)CC12CCN(C1CCSCC1)CC2 (stereo not drawn) |
| 52 | 4.3% | O=C(N[C@@H]1CN(Cc2c[nH]c3ccccc23)C[C@H]1CO)c1ccccc1 |
| 53 | ? | COc1cccc(CNC(=O)c2ccc(-c3ccc(N4CCSCC4)nc3)cc2)c1 |
| 54 | 0.8% | O=C(CCc1ccnc(N2CCOCC2)c1)NCc1cnccn1 |
| 55 | 5.7% | CCN1C(=O)CCc2cc(NC(=O)c3cccc(C#N)c3)ccc21 |
| 56 | 3.7%[70.6 µM] | CC(C)N[C@H]1C[C@@H](Cc2cc(CO)on2)C1(C)C |
| 57 | -6.8% | Cc1ccc(CN2C[C@@H](COc3ccncc3)[C@H](C(N)=O)C2)o1 |
| 58 | -1.2% | COc1ccc(S(=O)(=O)Nc2ccc(C)n(CC(=O)N(C)Cc3ccco3)c2=O)cc1 |
| 59 | -17.9% | COc1ccc(CN2C=C(C(=O)OCc3noc(-c4ccccc4C)n3)C(C)=NS2(=O)=O)cc1 |
| 60 | ? | COc1cccc(-c2noc(Nc3ccc(OC)c(OC)c3)n2)c1 |
| 61 | 1.0% | Cc1ccc2nc(C)c(C)c(C(=O)NCc3nc(-c4ncccn4)no3)c2c1 |
| 62 | 4.1% | CCN(Cc1noc(C)n1)C(=O)c1coc(COc2ccc3c(c2)OCO3)n1 |
| 63 | 2.4% | CN1CCN(S(=O)(=O)c2cccc(C(=O)N3C[C@@H]4CCN[C@@H]4C3)c2)CC1 |
| 64 | -2.8% | COCCNC(=O)c1ccc2c(c1)N(C)C(CC(=O)N1CCCC1)CO2 (stereo not drawn) |
| 65 | 2.0%[70.6 µM] | COc1cc(-c2nccc3c(=O)cc(N(C)c4ccccc4)oc23)ccn1 |
| 66 | 1.5% | Cc1ccccc1C(=O)N1CCC2(CC1)CCN(CCc1ccccc1)c1ccccc1O2 |
| 67 | -6.6%[70.6 µM] | COc1ccccc1CN1CCOc2cc([S+](=O)([O-])N(C)C)ccc2C1 |
| 68 | 0.2%[70.6 µM] | COc1ccc(-c2nnc([C@H]3CCN(C)C3)o2)cc1 |
| 69 | -7.1% | COc1cccc(CNC(=O)Cn2cccc2-c2nc(-c3ccccc3)no2)c1OC |
| 70 | -9.2% | COc1ccc(-c2noc(-c3nnn4c3COC(c3ccc(Cl)cc3)C4)n2)cc1OC (stereo not drawn) |
| 71 | 1.3% | COCc1noc(Cn2ncc(N(C)CCc3ccccc3)cc2=O)n1 |
| 72 | -14.6% | COc1ccc(C2Cn3nnc(-c4noc(CCc5cccc(OC)c5)n4)c3CO2)cc1 (stereo not drawn) |
| 73 | -1.0%[70.6 µM] | Cc1nnc(-c2cc(N3CCN(c4ccccn4)CC3)ccn2)n1C(C)C |
| 74 | -2.5% | CC(=O)N(C)c1ccc(NC(=O)CN(C)Cc2cccc3ncccc23)cc1 |
| 75 | 2.1% | Cc1ccc(C(=O)N2CCC(CCC(=O)NC3CC3)CC2)cc1 |
| 76 | 0.7% | COc1ccc(C(=O)N2CCCC(Cn3c(C)nc4cccnc43)C2)c(OC)c1 (stereo not drawn) |
| 77 | -1.4% | CN(Cc1ccccc1)C(=O)CN1C(=O)COc2ccc(C(=O)COc3ccc(F)cc3)cc21 |
| 78 | ? | CC1=NS(=O)(=O)N(C)C=C1C(=O)OCc1nc(-c2cccc(F)c2)no1 |
| 79 | 1.2% | C=CCNC(=O)N[C@H]1CCN(C(=O)CSC)[C@@H]1C(=O)N[C@H](Cc1ccccc1)C(N)=O |
| 80 | 0.0% | CCN(CC)Cc1cnc2c(C(=O)N3CC[C@H]4CC[C@@H](C3)N4)cnn2c1 |

Reprinted at random: 7 entries already listed
| No. | hNpr1 antagonist | SMILES |
| --- | --- | --- |
| 73 | -1.0%[70.6 µM] | Cc1nnc(-c2cc(N3CCN(c4ccccn4)CC3)ccn2)n1C(C)C |
| 75 | 2.1% | Cc1ccc(C(=O)N2CCC(CCC(=O)NC3CC3)CC2)cc1 |
| 77 | -1.4% | CN(Cc1ccccc1)C(=O)CN1C(=O)COc2ccc(C(=O)COc3ccc(F)cc3)cc21 |
| 71 | 1.3% | COCc1noc(Cn2ncc(N(C)CCc3ccccc3)cc2=O)n1 |
| 74 | -2.5% | CC(=O)N(C)c1ccc(NC(=O)CN(C)Cc2cccc3ncccc23)cc1 |
| 79 | 1.2% | C=CCNC(=O)N[C@H]1CCN(C(=O)CSC)[C@@H]1C(=O)N[C@H](Cc1ccccc1)C(N)=O |
| 72 | -14.6% | COc1ccc(C2Cn3nnc(-c4noc(CCc5cccc(OC)c5)n4)c3CO2)cc1 (stereo not drawn) |

Carrying on:
| No. | hNpr1 antagonist | SMILES |
| --- | --- | --- |
| 81 | 11.2µM* | CC(C)c1ccc(CC(=O)N2CCCc3ncc(C(=O)Nc4cccc(Cl)c4)cc32)cc1 |
| 82 | 1.2%[70.6 µM] | Cc1ccccc1NC1CCn2c(nc(C)c2C(=O)Nc2ccccc2)C1 (stereo not drawn) |
| 83 | -21.8% | O=C(c1ccccc1)N1CCC2(CC1)CC(N(Cc1ccc(F)cc1)C1CC1)CCO2 (stereo not drawn) |
| 84 | -13.9%[70.6 µM] | CC1(C)[C@H](Cc2cc(CO)on2)C[C@@H]1NS(=O)(=O)c1ccccc1 |
| 85 | -0.8% | Fc1ccc(OCc2nc(C3CCNCC3)no2)cc1 |
| 86 | 3.6%[70.6 µM] | CC(=O)N1CCC(N2CCOC[C@H]2c2ncc(-c3ccncc3)[nH]2)CC1 |
| 87 | -13.0% | COc1cc(C(=O)NC2CCN(c3cc(-c4ccccc4)[nH]n3)C2)cc(OC)c1OC (stereo not drawn) |
| 88 | 1.7% | Nc1nc(N2CCC3(CC2)NC(=O)CC3C(=O)O)c2[nH]cnc2n1 (stereo not drawn) |
| 89 | -23.6% | O=C(NC1CCCc2c1[nH]c1ccc(F)cc21)c1n[nH]c2c1CCCC2 (stereo not drawn) |
| 90 | -0.6%[70.6 µM] | CC[C@H]1CN(S(=O)(=O)c2c(C)noc2C)CC[C@H]1CC(=O)N(C)CC#N |
| 91 | 1.8% | COC[C@@H]1CN(C(=O)c2cc3ccccc3[nH]2)C[C@H]1c1ccccn1 |

An excerpt. The share of hits here may be higher or lower than overall.
